Bioassay records (PubChem)
D2 PAM: human D2 receptor positive allosteric modulation; DiscoveRx D2 beta-arrestin cells, luminescence, 90 min; 100% = 57 uM dopamine signal; potentiation, % (concentration not given with the values); 360,000 compounds, 0.23% hits; P14416; active = potentiation of 50% or more; inconclusive = 30% to 50%; inactive = 30% or less;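 note: tested on top of an EC20 dose of dopamine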
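D2 cells co-treated with compound plus 50 nM dopamine (EC20) for 90 min at 37 deg C to detect potentiation. Beta-arrestin recruitment was read as enzyme-fragment luminescence after 1 h at ambient temperature. Full response was set by 57 uM dopamine.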
CtBP-E1A inh: blocks the CtBP interaction with E1A. AlphaScreen GST-E1A/His-CtBP binding, 1536-well; hits give low values; control for the full effect not named in the record. activity change, % (test concentration not listed). 340,000 compounds, 0.49% hits; in the data active means activity change below about -65%; inconclusive means about -30% to -65%; inactive means above about -30%; note: % is set by controls: 0 for no effect and ±100 for the full control effect
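Homogeneous bead-based format: GST-tagged E1A captured on glutathione donor beads, His-tagged CtBP on nickel acceptor beads; compounds precede bead addition by 2 h at 37 °C.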
D2 ag: human D2 receptor agonism in beta-arrestin assay; DiscoveRx PathHunter D2 beta-arrestin, luminescence, 90 min; 100% = 57 uM dopamine signal; activation, % (no concentration beside the values); 360,000 compounds, 0.084% hits; AID 624465; in the data active = activation above about 40%; inconclusive = about 15% to 40%; inactive = below about 15%; note: compound concentration not given in the record; the text of the record calls up to 30% inactive
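Agonist mode: compounds alone added to overnight-plated D2 PathHunter cells for 90 min at 37 C, with 57 uM final dopamine (EC100) defining full response. Beta-arrestin recruitment detected by chemiluminescent reagent, read after 1 h at ambient temperature.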
gsp ag: gsp mutant agonism. gsp mutant cells, cAMP HTRF, 30 min; control for the full effect not named in the record. 340,000 compounds, 0.13% hits. Potency, µM (doses to about 76.9 µM), for the others: at the highest dose activation (cAMP increase), most hits filed as activators. AID 624287; active = well fitted activation curve with a large enough effect; inconclusive = small, poorly fitted or top-dose-only effect, or another doubt; inactive = no such curve, though single readings can be large or run the other way; cell line not stated here;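 note: phosphodiesterase inhibitor Ro 20-1724 added with compounds to block cAMP breakdown; potency is the fitted concentration of half-maximal effect; nearly all actives have a fitted effect of over 60% in size; about a fifth of the inactives were tested at one dose only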
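Cells in DMEM/10% FBS with G418 were pretreated with compounds in DMSO plus […] (300 uM stock) for 30 min at 37C. cAMP was measured by HTRF (cAMP-d2 plus anti-cAMP antibody-K) after 30 min at room temperature.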
Six1-Eya2 blk: inhibitors of human Six1/Eya2 interaction; Q15475+O00167; activity change, % (concentration not given with the values); 360,000 compounds, 0.56% hits; AID 651725; AlphaScreen GST-Six1/His-Eya2 binding, biochemical; hits give low values; control for the full effect not named in the record; in the data active = activity change below about -65%; inconclusive = about -30% to -65%; inactive = above about -30%; note: % is set by controls: 0 for no effect and ±100 for the full control effect
Target sequence (O00167 whole entry, looked up): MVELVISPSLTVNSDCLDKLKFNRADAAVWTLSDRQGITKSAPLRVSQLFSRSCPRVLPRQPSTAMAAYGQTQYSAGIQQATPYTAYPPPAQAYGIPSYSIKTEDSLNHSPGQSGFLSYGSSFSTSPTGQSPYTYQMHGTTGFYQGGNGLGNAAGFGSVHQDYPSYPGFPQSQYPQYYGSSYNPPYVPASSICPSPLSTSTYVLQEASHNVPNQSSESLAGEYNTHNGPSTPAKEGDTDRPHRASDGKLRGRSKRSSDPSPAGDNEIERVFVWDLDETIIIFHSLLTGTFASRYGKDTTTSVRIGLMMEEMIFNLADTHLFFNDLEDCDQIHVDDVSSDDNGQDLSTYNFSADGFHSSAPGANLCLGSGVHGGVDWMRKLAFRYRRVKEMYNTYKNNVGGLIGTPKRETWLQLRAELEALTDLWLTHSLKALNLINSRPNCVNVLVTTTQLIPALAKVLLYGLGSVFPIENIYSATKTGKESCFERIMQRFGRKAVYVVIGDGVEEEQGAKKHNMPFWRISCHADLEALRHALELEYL
Target sequence (Q15475 whole entry, looked up): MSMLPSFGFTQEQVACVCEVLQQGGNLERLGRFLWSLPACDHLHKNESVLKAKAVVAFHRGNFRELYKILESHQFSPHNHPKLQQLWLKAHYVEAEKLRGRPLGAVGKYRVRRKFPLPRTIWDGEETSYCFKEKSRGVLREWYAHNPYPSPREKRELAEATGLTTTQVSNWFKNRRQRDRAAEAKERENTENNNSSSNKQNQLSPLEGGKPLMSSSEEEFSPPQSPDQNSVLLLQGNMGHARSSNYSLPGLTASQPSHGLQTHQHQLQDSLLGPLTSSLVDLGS
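AlphaScreen luminescence read after one hour at 37 °C in darkness. Pin-transferred compounds met GST-Six1 and His-Eya2 protein (5X stock 250 nM/500 nM) plus glutathione donor and Ni-chelate acceptor beads (5X, 50 ug/mL).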
gsp antagonist: antagonists of gsp mutant (McCune-Albright syndrome) | gsp-mutant cells, cAMP HTRF, 30 min; control for the full effect not named in the record | Potency, µM (highest dose often 76.9 µM), for the others: at the highest dose activity change, negative = inhibition, usual class: inhibitors | 340,000 compounds, 0.4% hits; active = falling curve of any shape with a large fitted effect; inconclusive = falling curve, mostly with a smaller effect; inactive = flat or rising curve; cell line not stated here;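 note: intracellular cAMP measured with PDE inhibitor Ro 20-1724 present during compound exposure; potency is the fitted concentration of half-maximal effect; % is set by controls: 0 for no effect and ±100 for the full control effect; nearly all actives have a fitted effect of over 65% in size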
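Cells, 2000/well, grown 16–24 h in DMEM 10% FBS with 0.5 mg/ml G418, then compounds plus […] (300 uM addition stock), 30 min at 37C. cAMP read by HTRF (cAMP-d2 and anti-cAMP antibody-K in lysis buffer) after 30 min RT.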
Active calls of the source: *; ? = inconclusive; . = not tested or not shown; & = joins results of further samples; ! = a repeat was not active; [ ] = dose if it differs, or a comment.

SMILES	D2 PAM	CtBP-E1A inh	D2 ag	gsp ag	Six1-Eya2 blk	gsp antagonist
CCc1nc(C)cn1S(=O)(=O)c1ccc(Cl)c(Cl)c1Cl	-2	1	1.8	-14%	4	-11%
COc1cc(C(=O)Nc2ccc(C)cc2)c(-n2cnnn2)cc1OC	-9	10	0.4	-73%[inhibitor]	3	-11%
CCOC(=S)N/C(=N\S(=O)(=O)c1ccc(C)cc1)c1ccccc1	-6	12	0.8	-14%	6	4%
COc1ccc(/C=N/NC(=O)c2cc(Br)ccc2O)cc1Cn1cc(Cl)cn1	3	0	1.5	28%	-17	-22%
Cc1nn(CC(=O)NCCCN2CCCCC2)c(=O)c2cc(-c3ccccc3)nn12	-11	.	-3.2	19%	-2	3%
Cc1nc(CSc2nnc(Nc3cccc(C)c3C)s2)cs1	-20	-1	-2.0	-42%[inhibitor]	-2	-12%
CCn1c(SC(C)C(=O)NC2CCCc3ccccc32)nnc1-c1cccs1 (configuration not stated)	-13	-2	0.3	-5%	3	5%
CC(C)CCNC(=O)C1CCC(=O)N1C(C)C (configuration not stated)	-4	7	0.4	3%	2	12%
O=C(Cn1nc(C(=O)O)c2ccccc2c1=O)NCCC1=CCCCC1	0	0	-1.6	1%	6	2%
CCCOc1ccc(C(=O)O/N=C(\CC)c2ccc(C)cc2)cc1	1	33	0.6	-6%	44	5%
O=C(C[n+]1ccc(/C=C/c2ccccc2)cc1)c1ccc2c(c1)OCCO2	-8	1	-0.2	-2%	8	-3%
CC1CCN(CCC(=O)Nc2ccc(F)c(F)c2)CC1	-75	.	-3.0	-5%	-3	12%
COc1cc(/C=C/C(=O)O)cc(S(=O)(=O)Nc2ccccc2Oc2ccccc2)c1OC	-12	.	-3.5	?	3	-4%
CN(C(=O)c1cccc(NC(=O)Cc2ccc(NC(=O)C3CCN(C(=O)C4CC4)CC3)cc2)c1)C1CCCCC1	2	-1	-0.3	.	-1	10%
O=C(Nc1ccc(O)cc1C(=O)O)c1ccc(NC(=O)c2ccco2)cc1	19	.	5.5	?	-24	-19%
CC(=O)N1CC(=O)N=C1SCC(=O)Nc1nc(-c2ccccc2)c(-c2ccccc2)s1	5	-30	0.0	-46%[inhibitor]	-22	-25%
COc1ccc2c(CC(=O)Nc3ccc(OC)c(NS(=O)(=O)c4ccc(F)cc4)c3)coc2c1	-25	2	0.1	13%[15.4 µM]	-4	?
O=C(CSc1n[nH]c(=O)[nH]c1=O)c1ccccc1[N+](=O)[O-]	1	9	0.8	-1%	2	14%
Clc1ccc(Oc2nc3ccccc3n3cccc23)cc1	-1	6	-1.7	28%	-2	-2%
CCCC(=O)Nc1c(-c2cccs2)c(=O)c2ccccc2n1C	-15	2	-2.1	9%	4	-1%
COc1ccccc1NC1=C(C)C(=O)CC1	-3	-2	-2.6	-15%	0	-1%
O=C(CCCSc1nc(-c2ccco2)cc(C(F)(F)F)n1)NCC1CCCO1 (configuration not stated)	-5	0	-4.3	0%	5	-2%
Cc1cc(C)c(Nc2cc(S(=O)(=O)O)c(N)c3c2C(=O)c2ccccc2C3=O)c(C)c1	-30	-88*!	-11&-15	-16%	-68*	28µM*
COc1ccc(NC(=O)CSc2ncnc3c2cnn3Cc2ccccc2)cc1	-16	7	-3.2	?	-2	9%
O=C1C2C3C=CC(CC3)C2C(=O)N1c1ccc(Cl)cc1Cl (configuration not stated)	-2	-3	-2.4	16%	8	0%
(list continues)
SMILES	D2 PAM	CtBP-E1A inh	D2 ag	gsp ag	Six1-Eya2 blk	gsp antagonist
NC(=O)c1ccccc1N/C=C/C(=O)c1ccccc1	-15	1	-2.4	?	6	10%
COc1ccc(CSc2nnc(C)n2N)cc1[N+](=O)[O-]	-8	3	0.4	7%[15.4 µM]	-12	4%
CC(C)Cc1nnc(NC(=O)CSc2nc(O)c(-c3ccccc3)c(=O)[nH]2)s1	0	-20	-5.6	8%[15.4 µM]	0	-4%
CC(C(=O)Nc1ccccc1)N1C(=O)c2ccccc2C1=O (configuration not stated)	2	15	-0.1	8%[15.4 µM]	6	.
COc1ccc2nc(Nc3ccccc3)sc2c1	-9	-2	-2.8	8%[15.4 µM]	-6	-17%
CCc1nc(SCC(=O)c2ccc(Cl)s2)c2oc3ccccc3c2n1	-2	8	0.4	14%	13	-2%
CCC/C=N/NC(=O)c1ccccc1O	-1	-3	4.5	-5%	3	3%
C[C@@H]1NC(=O)c2cc([N+](=O)[O-])cc(I)c2NCCCC[C@@H](C(N)=O)NC(=O)[C@H](CC(N)=O)NC1=O	5	3	3.0	.	0	11%
Cc1ccc(NC(=O)CSc2ccc3nnc(-c4cccnc4)n3n2)cc1	-7	-24	-5.6	?	-7	14%
CCN(CC)CCOC(=O)c1cccc2c1-c1ccccc1C2O (configuration not stated)	-14	-8	-7.6	29%	-7	4%
CCOC(=O)C1=C[C@@H](c2ccccc2)N(S(=O)(=O)c2ccc(C)cc2)[C@H]1c1cccc(Cl)c1	-5	10	-2.7	.	11	.
Cc1ccc(S(=O)(=O)N2CCOCC2)cc1C(=O)N1CCCCCC1	-13	2	-2.7	-6%[15.4 µM]	-1	-5%
CC1CCCN(CCS(=O)(=O)c2ccccc2)C1 (configuration not stated)	0	-2	1.5	-20%	7	12%
O=S(=O)(NCCc1csc(-c2cccnc2)n1)c1cccs1	-13	-2	-6.1	8%	0	-2%
Cc1ccc2nc(-c3cccc(Br)c3)c(CC3CCCCC3)n2c1	-9	5	-5.7	.	-1	.
O=C(O)c1ccc(NC(=O)c2ccccc2NC(=O)c2cccc(Br)c2)cc1	3	6	-9.1	-17%[15.4 µM]	-17	?
CN(C(=O)COC(=O)/C=C/c1cccs1)C1CCCCC1	-1	-6	-3.1	4%	0	11%
Cc1nc2ccc(Br)cc2c2c1CC(CBr)O2 (configuration not stated)	-5	-7	6.8	?	0	3%
CCn1cc(C(=O)O)c(=O)c2cnc(N3CCN(C(=S)NC(=O)c4ccccc4)CC3)nc21	11	0	-0.7	?	15	-1%
COc1ccc(C(=O)CCC(=O)NCCc2c[nH]c3ccccc23)cc1	-1	-4	-0.8	12%	-14	0%
COc1cc(S(=O)(=O)Nc2ccccc2C)ccc1Cl	-18	-1	-0.3	-43%[inhibitor]	3	3%
CCCOc1ccc(C2/C(=C(\O)c3c(C)[nH]c(C(=O)OC)c3C)C(=O)C(=O)N2CCN(C)C)cc1 (configuration not stated)	0	1	1.1	17%	2	7%
Cc1ccc(C)c(S(=O)(=O)Nc2cc(SCC(=O)O)c(O)c3ccccc23)c1	?	-7	9.6	23%	-23	-3%
COc1ccccc1NC(=O)Cc1nnc(SCC(=O)NC2CCCCC2)n1C	-2	0	3.6	-31%	12	-4%
Cc1nc(C)c(C(=O)O)s1	-11	-8	0.3	-51%[inhibitor]	2	8%

Reprinted from the part before: 7 entries, then new ones.
SMILES	D2 PAM	CtBP-E1A inh	D2 ag	gsp ag	Six1-Eya2 blk	gsp antagonist
CCn1cc(C(=O)O)c(=O)c2cnc(N3CCN(C(=S)NC(=O)c4ccccc4)CC3)nc21	11	0	-0.7	?	15	-1%
COc1ccc(C(=O)CCC(=O)NCCc2c[nH]c3ccccc23)cc1	-1	-4	-0.8	12%	-14	0%
COc1cc(S(=O)(=O)Nc2ccccc2C)ccc1Cl	-18	-1	-0.3	-43%[inhibitor]	3	3%
CCCOc1ccc(C2/C(=C(\O)c3c(C)[nH]c(C(=O)OC)c3C)C(=O)C(=O)N2CCN(C)C)cc1 (configuration not stated)	0	1	1.1	17%	2	7%
Cc1ccc(C)c(S(=O)(=O)Nc2cc(SCC(=O)O)c(O)c3ccccc23)c1	?	-7	9.6	23%	-23	-3%
COc1ccccc1NC(=O)Cc1nnc(SCC(=O)NC2CCCCC2)n1C	-2	0	3.6	-31%	12	-4%
Cc1nc(C)c(C(=O)O)s1	-11	-8	0.3	-51%[inhibitor]	2	8%
O=C(NC(=S)Nc1ccccc1C(=O)O)c1ccc2ccccc2c1	4	-3	-5.3	15%	-6	?
Cc1cccc2c1N(CC(=O)OC(C)C)C(=O)C2=O	-29	8	-13	-51%[inhibitor]	3	4%
Cn1c(SCC(=O)O)nc2sc3c(c2c1=O)CCC3	-3	.	-3.9	-15%	20	3%
CCOC(=O)c1c(NC(=S)NC)sc2c1CC(C)(C)SC2	-3	-2	5.2	15%	-1	-29%
CCCCc1ccc(NC(=S)Nc2ccc(Nc3ccc(OC)cc3)cc2)cc1	11	?	7.2	-40%[inhibitor]	?	-2%
CCOC(=O)C(C(=O)NCc1ccc(F)cc1)c1ncc(C(F)(F)F)cc1Cl (configuration not stated)	-8	15	-1.9	2%	6	7%
CCOc1ccc(CCNC(=O)C2CCN(S(=O)(=O)N3CC(C)CC(C)C3)CC2)cc1OCC (configuration not stated)	-7	.	-2.4	11%	1	1%
COCCn1nnnc1C(c1ccc(OC)cc1OC)N1CCN(c2ccccc2F)CC1 (configuration not stated)	-11	5	-1.7	12%	3	-3%
COCCNC(=O)C1(C)Cc2c(-c3ccc4c(c3)OCO4)ccnc2O1 (configuration not stated)	-8	7	-2.0	.	0	.
O=S(=O)(Oc1ccccc1-c1ccccc1)c1ccccc1	-8	0	-3.3	-13%[15.4 µM]	72	2%
NC(=O)c1oc2ccccc2c1NC(=O)CN1CCCCC1	-21	6	-2.1	-27%	2	0%
Cc1nnc(-c2ccccc2)[nH]c1=O	-9	0	-3.0	1%	7	2%
Cc1[nH]n(C(C)(C)C)c(=O)c1Sc1ccccc1	-12	8	-3.5	15%	-1	-12%
Cn1cc(S(=O)(=O)Nc2ccc3c(c2)OCCO3)cn1	-4	11	-11	15%[15.4 µM]	2	8%
CCCOC(=O)Cn1cnc2scc(-c3ccc(C)cc3)c2c1=O	2	0	0.1	-37%	-7	?
Cc1ccc(S(=O)(=O)N2CCCC(C(=O)NCCc3ccc(S(N)(=O)=O)cc3)C2)cc1 (configuration not stated)	-19	-10	-1.3	2%[15.4 µM]	0	-13%
Clc1ccc2nc(C3CCCCC3)c(Cc3ccsc3)n2c1	-1	19	-2.5	.	23	.
O=C(NC(=S)Nc1ccc2c(c1)OCCO2)c1ccco1	-11	-4	3.2	-1%[15.4 µM]	-2	-19%
Cc1ccccc1NC(=O)C1CCCN1S(=O)(=O)c1cccc2cccnc12 (configuration not stated)	-1	28	-1.4	-5%	16	2%
CC(C(=O)N1CCOCCOCCOCC1)N1C(=O)c2ccccc2C1=O (configuration not stated)	-4	.	-7.2	-46%[inhibitor]	4	5%
O=C(Nc1nn[nH]n1)C12CC3CC(CC(C3)C1)C2	-2	10	0.9	-7%	-1	-6%
CSC1=NC2(C)CCCCC2C12C=CC(=O)C=C2 (configuration not stated)	-12	-1	-1.1	10%	1	10%
